Screens: PubChem BioAssay, National Center for Advancing Translational Sciences (NCATS)
Marburg entry inh: blocks Marburg virus binding to or entry into cells. Marburg virus pseudotyped entry inhibition, cell reporter; control for the full effect not named in the record; about a third of the inactives were read at about 46 µM. Potency, µM (top dose mostly 37.8 µM), for inactives: at the top dose activity change, negative = inhibition, hits mostly inhibitors. 300,000 tested, 1.8% active. AID 540276; active = well fitted inhibition curve with a large enough effect; inconclusive = small, poorly fitted or top-dose-only effect, or effect the other way; inactive = flat fitted curve, though single readings scatter; tested in HEK293 cells; about a fifth of its hits are not listed in these tables; note: % is set by controls: 0 for no effect and ±100 for the full control effect; luciferase read-out
LASV entry inh: inhibitors of Lassa virus binding or cell entry; Lassa virus pseudotype entry inhibition, cell reporter; control for the full effect not named in the record; Potency, µM (top dose mostly 37.9 µM), for inactives: top-dose activity change, negative = inhibition, usual class: inhibitors; 300,000 tested, 1.2% active; active means well fitted inhibition curve with a large enough effect; inconclusive means small, poorly fitted or top-dose-only effect, or effect the other way; inactive means flat fitted curve, though single readings scatter; tested in HEK293 cells; note: % is set by controls: 0 for no effect and ±100 for the full control effect; nearly all actives have a fitted effect of over 50% in size; luciferase read-out
StopGo reporter: lowers the luciferase signal of an FMDV 2A StopGo reporter; 410,000 tested, 1.2% active; human cells with a luciferase reporter of 2A StopGo recoding; control for the full effect not named in the record; Potency, µM (top dose mostly 57.9 µM), for inactives: at the highest dose signal change, negative = less light; AID 1159524; active = well fitted falling curve with a large enough effect; inconclusive = small, poorly fitted or top-dose-only effect; inactive = no such curve, though single readings can be large or run the other way; tested in HEK293T cells; note: % is set by controls: 0 for no effect and ±100 for the full control effect; nearly all actives have a fitted effect of over 45% in size; luciferase light after 4 h
Cruzain Triton: cruzain (T. cruzi) inhibition with detergent. P25779. purified cruzain, Z-FR-AMC fluorescence, 0.01% Triton. Potency, µM, for the others: max response, negative = inhibition, actives largely listed as inhibitors. 200,000 tested, 0.43% active. AID 1478;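 note: plate controls were neutral wells for no effect and buffer without enzyme for full effect; nearly all actives have a fitted effect of over 40% in size; top concentration of the series not given in the record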
Target sequence (P25779 123-467 limits assumed): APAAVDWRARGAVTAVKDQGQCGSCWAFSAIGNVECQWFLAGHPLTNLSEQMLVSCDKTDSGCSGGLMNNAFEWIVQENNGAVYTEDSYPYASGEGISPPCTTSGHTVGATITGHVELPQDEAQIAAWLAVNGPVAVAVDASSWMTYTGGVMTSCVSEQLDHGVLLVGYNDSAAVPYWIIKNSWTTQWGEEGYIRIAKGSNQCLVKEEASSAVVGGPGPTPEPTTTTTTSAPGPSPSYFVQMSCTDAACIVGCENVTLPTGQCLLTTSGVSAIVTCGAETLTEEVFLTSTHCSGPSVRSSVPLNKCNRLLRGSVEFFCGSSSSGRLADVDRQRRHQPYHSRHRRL
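In this qHTS format, compounds are incubated with 1.5 nM cruzain for 15 min at room temperature before 2 uM Z-FR-AMC is added. Release of AMC is followed at 360/450 nm, and progress is taken as the 60 s fluorescence difference.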
Cruzain noTriton: inhibitors of Trypanosoma cruzi cruzain without detergent; P25779; purified cruzain, Z-FR-AMC fluorescence, no detergent; Potency, µM, for the others: max response, negative = inhibition, actives largely listed as inhibitors; 200,000 tested, 2.3% active;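 note: plate controls were enzyme without inhibitor for no effect and buffer without enzyme for full effect; nearly all actives have a fitted effect of over 40% in size; top concentration of the series not given in the record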
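Detergent-free condition (0.00005% Triton X-100) in acetate buffer pH 5.5 with DTT. 1.5 nM enzyme and compound were pre-mixed 15 min, then 2 uM Z-FR-AMC substrate added; reaction progress from fluorescence change between first and third reads (60 s).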
SARS PLpro yeast: SARS-CoV PLP inhibition in yeast; S. cerevisiae expressing SARS-CoV PLpro, growth rescue; control for the full effect not named in the record; Potency, µM (series often up to 32.9 µM), without a hit: top-dose activity, positive = growth rescue; 330,000 tested, 0.19% active; active means well fitted rising curve with a large enough effect; inconclusive means small, poorly fitted or top-dose-only effect; inactive means no such curve, though single readings can be large or run the other way; note: 0% is about no effect; nearly all actives have a fitted effect of over 55% in size; growth read by luminescence after 48 h
NS1 inh: blocks influenza NS1 protein function | AID 2326 | Potency, µM (titrated, usually from 46.1 µM), inactives show at the top dose activity, positive = more growth | 270,000 tested, 0.4% active | S. cerevisiae slowed by influenza A NS1, growth recovery by OD600; active means well fitted rising curve with a large enough effect; inconclusive means small, poorly fitted or top-dose-only effect; inactive means no such curve, though single readings can be large or run the other way; note: nearly all actives have a fitted effect of over 50% in size
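Compounds were scored for reversing the slow growth caused by influenza A NS1 in S. cerevisiae, measured by optical density at 600 nm. Assay medium contained 2% galactose at pH 6.0; NS1-free yeast of the same strain were the positive control.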
RE007 growth inh: less growth of the S. pombe RE007 Vpr strain; S. pombe RE007 Vpr strain, BacTiter-Glo ATP luminescence, 24 h; control for the full effect not named in the record; Potency, µM (top dose mostly 92.2 µM), inactives show at the top dose activity change, negative = less growth; 360,000 tested, 0.21% active; AID 651644; active = well fitted falling curve with a large enough effect; inconclusive = small, poorly fitted or top-dose-only effect; inactive = no such curve, though single readings can be large or run the other way;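 note: % is set by controls: 0 for no effect and ±100 for the full control effect; nearly all actives have a fitted effect of over 50% in size; the assay follows cell death caused by Vpr and the record does not say whether a fall means rescue or toxicity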
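Fission yeast RE007 carrying one integrated HIV-1 vpr copy, seeded at OD 0.01 in PMG+AL medium with 23 nL pinned compound. Grown 24 h at 30 degrees; viability read by BacTiter-Glo luminescence after 5 min.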
Starred values were filed as active, the others as inactive; ? = inconclusive; . = no result given; & = joins results of further samples; [ ] = another dose, or the depositor's remark. Unless noted, calls come from the whole dose curve; as a rule, active = well fitted curve in the direction sought with a large enough effect; inconclusive = small, poorly fitted or top-dose-only effect, or another doubt; inactive = no such curve, though single readings can be large; an effect the other way counts as inactive or inconclusive. Potency is the fitted concentration of half-maximal effect. Not a hit list; about 4.6% have a hit in one of these screens.

SMILES	Marburg entry inh	LASV entry inh	StopGo reporter	Cruzain Triton	Cruzain noTriton	SARS PLpro yeast	NS1 inh	RE007 growth inh
CC(NC(=O)C1CCN(C(=O)c2ccc(-n3ccc4ccccc43)s2)CC1)c1ccccc1 (stereo not drawn)	.	-13%[46.1 µM]	1%	-1.4%	13%	.	.	.
COc1ccccc1CNC(=O)c1ccc2c(c1)N(Cc1cccc(Cl)c1)C(=O)c1ccccc1S2(=O)=O	.	2%[46.1 µM]	-7%	-0.4%	?	.	.	.
COc1ccc(C(=O)N2CCC(C(=O)Nc3ccccc3C)CC2)cc1OC	?	-9%[46.1 µM]	0%	.	.	-1%	5%	0%
Cc1ccc(/C=C/c2ccc(=O)n(Cc3ccccc3Cl)n2)cc1	-14%	-3%	0%	-5.8%	-9%	-24%	10%	3%
Clc1ccc(Cn2cnc3ccccc32)cc1	?	-25%[46.1 µM]	?	.	.	-10%	.	15%
Cc1cc(C)c(C(=O)N2CCC3(CC2)OCCO3)c(C)c1	15%	22%	10%	.	.	2%	-7%	6%
Cc1ccc(NC(=O)C2CCCN(c3nnc(-n4c(C)ccc4C)s3)C2)c(C)c1 (stereo not drawn)	?	-28%[46.1 µM]	-25%	-2.6%	9%	.	.	.
O=c1/c(=C\c2cccnc2)sc2nc3ccccc3n12	?	?	51%[activator]	-6.9%	-9%	-3%	-3%	5%
O=C(Nc1ncc(Cc2ccccc2)s1)C1COc2ccccc2O1 (stereo not drawn)	?	?	35%[activator]	0.0%	-6%	-1%	2%	-14%
Cn1c(CNS(=O)(=O)c2ccc(F)cc2)n[nH]c1=S	10%	17%	23%	3.4%	-5%	6%	-4%	19%
COc1ccc(CNC(=O)Cn2ccc3cc(S(=O)(=O)N4CCCCCC4)ccc32)cc1OC	.	1%[46.1 µM]	9%	-5.1%	?	.	.	.
CSc1ccc(C(=O)C2CCCN(C(=O)CN3CCOC3=O)C2)cc1 (stereo not drawn)	9%	0%	6%	.	.	-3%	1%	23%
COc1cc(NC(=O)CSc2nncn2C)c(C)cc1[N+](=O)[O-]	11%[46.1 µM]	0%	-17%	.	.	2%	.	0%
CCC(C)(C(=O)NC1CCCCC1)N(C)C(=O)c1ccc2c(c1)OCO2 (stereo not drawn)	-2%	6%	14%	0.7%	-2%	-3%	2%	-8%
COc1ccccc1NC(=O)C(C)n1cnc2c(oc3nc4c(cc32)CCCC4)c1=O (stereo not drawn)	.	.	-9%	.	.	0%	13%	4%
Cc1ccc(NC(=O)CN2C(=O)N/C(=C\c3cccn3-c3cccc(C(=O)O)c3)C2=O)cc1	4%[46.1 µM]	10%	10%	.	.	1%	.	45%
COc1ccc(/C=C2\Sc3ccc(C(=O)N4CCCC4)cc3N(C)C2=O)cc1OC	?	?	14%	.	.	-4%	15%	-4%
O=C(/C=C/c1ccc([N+](=O)[O-])cc1)OCC(=O)N1c2ccccc2Sc2ccccc21	-5%	?	-15%	-4.6%	?	14%	8%	13%
O=C(NC(=S)NCc1cccnc1)c1cc2ccccc2o1	?	?	37%[activator]	.	.	2%	.	7%
CC(=O)N1CCN(Cc2nc3cc(NC(=O)c4ccc(F)cc4)ccc3n2C)CC1	7%[46.1 µM]	.	-3%	.	.	0%	0%	-4%
COc1ccc(OCC(=O)Nc2ccc3c(c2)nc(CN2CCCC2)n3C)cc1	?	16%	?	-0.8%	-3%	-5%	4%	11%
NC(=O)c1cn(C2CCCCC2)c2ccccc2c1=O	-26%[46.1 µM]	-14%[46.1 µM]	-2%	.	.	0%	-1%	2%
CC(Cc1ccccc1)NCCC(=O)NC(C)Cc1ccccc1 (stereo not drawn)	.	.	-11%	.	.	0%	2%	11%
O=C(C1CCCN(Cc2cccs2)C1)N1CCCCCC1 (stereo not drawn)	?	-6%	0%	5.6%	-5%	12%	-15%	3%
Cc1nnc2c3ccccc3nc(N3CCN(c4cccc(Cl)c4)CC3)n12	.	-7%[46.1 µM]	?	-11%	?	.	.	.
Other records:
SMILES	Marburg entry inh	LASV entry inh	StopGo reporter	Cruzain Triton	Cruzain noTriton	SARS PLpro yeast	NS1 inh	RE007 growth inh
O=c1[nH]c(=S)n(C2CC2)c(O)c1C=NCc1ccc(F)cc1	.	.	-20%	.	.	5%	12%	-3%
O=C1Nc2ccc([N+](=O)[O-])cc2OC1CCN1CCCC1 (stereo not drawn)	-1%[46.1 µM]	-10%	-2%	.	.	1%	.	3%
C[C@]12C=CC(=O)C=C1CC[C@@H]1[C@@H]2C(=O)C[C@@]2(C)[C@H]1CC[C@]2(O)C(=O)COC(=O)CCC(=O)O	-3%[46.1 µM]	20%[46.1 µM]	-5%	.	.	3%	0%	0%
c1ccc(-c2ccc(-c3[nH]ncc3CN3CCC(N4CCSCC4)CC3)cc2)cc1	-11%	7%	18%	.	.	1%	3%	-8%
c1nnc(NCNc2nncs2)s1	.	.	-15%	-0.8%	-1%	.	4%	-23%
O=C(O)CN(c1ccccc1[N+](=O)[O-])S(=O)(=O)c1ccccc1	-4%[46.1 µM]	6%	-11%	.	.	-2%	4%	-13%
C=CCN=C(NC#N)SCCc1ccccc1	19%&19%	8%	12%	1.2%	0%	0%	-5%	-3%
CN1c2ccccc2C2(C)CCCC3=Cc4cccc([N+](=O)[O-])c4OC312 (stereo not drawn)	-2%	7%	?	-7.1%	?	2%	-9%	.
CSC1=C(C#N)C(c2ccccc2Cl)C2=C(N1)c1ccccc1C2=O (stereo not drawn)	2%	-21%	?	-0.6%	?	-1%	-31%	-4%
Cc1cn(-c2ccccc2)c(C)c1/C=N\Nc1nc(N2CCOCC2)nc(N2CCOCC2)n1	.	.	-13%	.	.	-1%	12%	14%
COC1=CC(=Cc2c(N)n3nc(CC(=O)N4CCCCC4)sc3nc2=O)C=C(OC)C1=O	.	.	0%	.	.	2%	22%	-1%
O=C(NCc1cccnc1)C1c2ccccc2C(=O)N1C1CCCCCC1 (stereo not drawn)	9%	9%	-6%	1.7%	6%	-5%	-1%	-15%
CC1CCCCC12NC(=O)N(CC(=O)OCC(=O)Nc1ccc(F)cc1[N+](=O)[O-])C2=O (stereo not drawn)	1%	17%	-18%	.	.	3%	.	-17%
O=S(=O)([O-])CCC[n+]1c(SCCCS(=O)(=O)O)sc2ccc(Cl)cc21	28%	1%	-25%	-1.5%	8%	11%	-5%	-5%
Cc1cc(Br)ccc1SCC(=O)N1CCN(S(=O)(=O)c2ccccc2)CC1	-27%	-15%	?	.	.	-7%	-37%	-7%
CCc1ccc(NC(=O)C2CCN(S(=O)(=O)c3ccc4c(c3)NC(=O)CO4)CC2)cc1	.	.	-18%	.	.	2%	0%	3%
Cc1ccc(C(=O)NNC(=O)c2ccc(NS(=O)(=O)c3cccs3)cc2)s1	-10%	14%	8%	.	.	-6%	.	-1%
O=[N+]([O-])c1ccc(C2CCCC/C2=N/OCc2ccccc2F)c([N+](=O)[O-])c1 (stereo not drawn)	1%	-15%	-23%	-0.6%	-13%	-2%	6%	-1%
Cc1nn(Cc2ccccc2)c(=O)c2nn(-c3ccc(Cl)cc3)c(C)c12	?	3%	?	-2.7%	3%	-25%	14%	23%
N/C(=N\c1nc2ccccc2o1)NC(=O)C(Cc1ccccc1)N1C(=O)c2ccccc2C1=O (stereo not drawn)	?	?	?	1.7%	25µM*	-1%	-4%	-8%
COCCCN1C(=O)c2ccc(C(=O)Nc3ccc(OC)cc3OC)cc2C1=O	13%	1%	-12%	3.6%	18%	10%	-4%	-1%
Cc1cc2c(cc1S(=O)(=O)CCC(=O)Nc1ccc(OC(F)(F)F)cc1)OCC(=O)N2	.	-19%[46.1 µM]	-7%	-6.7%	7%	.	.	.
Cc1nc(SCC(=O)Nc2ccccc2C(F)(F)F)c2c(=O)n(C)c(=O)n(C)c2n1	23%	-30%[14.3 µM]	-20%	.	.	.	6%	-11%
CCOc1ccc(CCNC(=O)COC(=O)c2ccc(OC(C)C)cc2)cc1OCC	-1%	-3%	-17%	.	.	-3%	.	20%
COc1ccccc1CC(=O)NCCN1CCCCC1	-16%	?	-10%	.	.	-2%	5%	-6%
The list continues:
SMILES	Marburg entry inh	LASV entry inh	StopGo reporter	Cruzain Triton	Cruzain noTriton	SARS PLpro yeast	NS1 inh	RE007 growth inh
CCn1c(CNc2ccccc2Cl)nnc1SCC(=O)OC1CCCCC1	5%	?	.	-7.2%	-3%	3%	-33%	5%
CCN(C(=O)CSc1n[nH]c(-c2ccc(OC)cc2)n1)c1c(N)n(Cc2ccccc2)c(=O)[nH]c1=O	?	2%	-20%	.	.	.	.	2%
COC(=O)c1c(NC(=O)C2c3ccccc3Oc3ccccc32)sc(C)c1C	5%	2%	-28%	0.2%	25µM*	0%	6%	2%
Cc1ccccc1NC(=O)CN1C(=O)C2C3CC(C(Br)C3Br)C2C1=O (stereo not drawn)	-8%	-13%	4%	-8.2%	3%	-10%	-10%	-5%
COc1ccc(CNC(=O)c2cc3cc(C)ccc3n2C)cc1	?	?	5%	-2.9%	-4%	.	.	.
COC(=O)c1ccc(C(=O)OC)c(NC(=O)COC(=O)C2CCC(C(C)(C)C)CC2)c1 (stereo not drawn)	-27%	-5%	19%	-0.9%	?	-6%	9%	9%
Cc1cc(C)cc(NCc2ccncc2)c1	.	.	-18%	.	.	3%	?	-6%
CCc1cc2c(cc(C(=O)OC)n2Cc2nc(-c3ccc(C)cc3)oc2C)s1	13%[46.1 µM]	.	23%	-2.6%	-7%	.	.	.
O=C(Cn1cnc2c(cnn2-c2ccccc2)c1=O)OCc1ccccc1	20%[46.1 µM]	22%	6%	-1.2%	-7%	-3%	4%	19%
COc1ccc(NC(=S)Nc2ccc(C)c(Cl)c2)cc1OC	.	.	7%	.	.	-2%	0%	6%
